# Source: PubChem
# UUG fidelity: modulators of yeast start codon fidelity, primary screen, whole organism, S. cerevisiae, single point, plate reader | S. cerevisiae UUG-firefly luciferase reporter, luminescence/redox ratio | activity score, % at 18.7 µM | 0.13% of 350,000 active | AID 602363, 2012;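 active = replicate mean at a twofold rise or more, about +100% in these data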;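 also: firefly luciferase made from a UUG start codon reports start codon fidelity; reporter light over untreated wells divided by growth signal over untreated wells; some hits fall short of that in this replicate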
# HIV Env fusion: inhibitors of HIV-1 Env-driven cell-cell fusion, primary screen, HeLa-JRFL effector, CEM21 target cells, luciferase; inhibition, % at 12.3 µM; 1.1% of 360,000 active; AID 651610, 2012;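 active = mean replicate inhibition score of at least 50 and every replicate individually at or above 50; inconclusive = only one of the two criteria met; inactive = mean below 50 and not all replicates reaching 50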;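 also: 0% = plate neutral controls and 100% = maraviroc near 300 nM; one replicate is shown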
# * marks the source's active call; other numbers are inactive results; u = inconclusive; [ ] = dose if it differs, or a comment.
SMILES,UUG fidelity,HIV Env fusion
C[C@H](CO)N1C[C@H](C)[C@H](CN(C)Cc2ccncc2)Oc2ccc(NC(=O)Nc3ccccc3)cc2CC1=O,1,-6[16.7 µM]
COc1ccc(NC(=O)N(C)C[C@H]2Oc3c(NC(=O)Nc4ccc(F)cc4)cccc3C(=O)N([C@H](C)CO)C[C@H]2C)cc1,9,-10[16.7 µM]
Cc1cc(C(=O)Nc2cccc3c2O[C@H](CN(C)C(=O)NC2CCCCC2)[C@@H](C)CN([C@@H](C)CO)C3=O)n(C)n1,2,10[16.7 µM]
Cc1ccc(S(=O)(=O)Nc2cccc3c2O[C@H](CN(C)S(C)(=O)=O)[C@H](C)CN([C@H](C)CO)C3=O)cc1,0,-16[16.7 µM]
C[C@H]1CN([C@@H](C)CO)C(=O)c2cc(C3=CCCCC3)cnc2O[C@@H]1CN(C)Cc1cccnc1,3,-17[16.7 µM]
C[C@H]1CN([C@@H](C)CO)C(=O)c2cc(-c3ccccc3)cnc2O[C@@H]1CN(C)Cc1ccc(C(=O)O)cc1,5,-27[16.7 µM]
CCCNC(=O)N(C)C[C@H]1Oc2cc(C#CC(C)C)ccc2S(=O)(=O)N([C@H](C)CO)C[C@@H]1C,3,-86[16.7 µM]
C[C@@H]1CN([C@H](C)CO)C(=O)Cc2cc(NC(=O)C3CCCCC3)ccc2O[C@@H]1CN(C)C(=O)Nc1ccc(F)cc1,0,-15[16.7 µM]
C[C@H](CO)N1C[C@H](C)[C@H](CN(C)S(=O)(=O)c2ccccc2)Oc2ccc(NS(=O)(=O)c3ccc(Cl)cc3)cc2C1=O,-4,21[16.7 µM]
Cc1noc(C)c1NC(=O)Nc1ccc2c(c1)CC(=O)N([C@@H](C)CO)C[C@@H](C)[C@H](CN(C)C(=O)Nc1ccc(F)cc1)O2,0,10[16.7 µM]
C[C@H]1CN([C@@H](C)CO)S(=O)(=O)c2ccc(C#Cc3ccccc3F)cc2O[C@@H]1CN(C)C(=O)c1ccc2c(c1)OCO2,1,11[16.7 µM]
O=C(C[C@@H]1C[C@H]2c3cc(NS(=O)(=O)c4ccccc4)ccc3O[C@H]2[C@@H](CO)O1)NCC1CC1,-18,-19[16.7 µM]
Cc1noc(C)c1S(=O)(=O)N(C)C[C@H]1Oc2c(NC(=O)C3CC3)cccc2C(=O)N([C@@H](C)CO)C[C@H]1C,2,-18[16.7 µM]
C[C@H]1CN([C@@H](C)CO)C(=O)Cc2cc(NC(=O)CCCCCC(=O)Nc3ccccc3N)ccc2O[C@H]1CN(C)CC1CCCCC1,7,-17[16.7 µM]
CCC(=O)N(C)C[C@H]1Oc2cc(C#C[C@@H](C)O)ccc2S(=O)(=O)N([C@@H](C)CO)C[C@@H]1C,11,2[16.7 µM]
C[C@@H]1CN([C@@H](C)CO)C(=O)Cc2cc(NS(=O)(=O)c3cccs3)ccc2O[C@H]1CN(C)Cc1ccc(Oc2ccccc2)cc1,1,u
C[C@@H]1CN([C@H](C)CO)C(=O)c2cc(NC(=O)c3ccncc3)ccc2O[C@@H]1CN(C)C(=O)Nc1cccc2ccccc12,7,5[16.7 µM]
COc1cccc(S(=O)(=O)N[C@H]2CC[C@@H](CC(=O)NCc3ccc(Cl)cc3)O[C@@H]2CO)c1,15,11[16.7 µM]
COc1ccc(CN(C)C[C@@H]2OCCCC[C@@H](C)Oc3ccc(NC(=O)NC(C)C)cc3C(=O)N([C@H](C)CO)C[C@@H]2C)cc1,24,-11[16.7 µM]
C[C@H](CO)N1C[C@H](C)[C@H](CN(C)C(=O)Cc2ccccn2)Oc2ncc(/C=C/c3ccccc3)cc2C1=O,-14,7[16.7 µM]
C[C@@H]1CN([C@@H](C)CO)C(=O)Cc2cc(NS(=O)(=O)c3cn(C)cn3)ccc2O[C@@H]1CN(C)C(=O)Nc1cccc2ccccc12,1,3[16.7 µM]
CC(C)CC#Cc1ccc2c(c1)O[C@@H](CN(C)S(C)(=O)=O)[C@H](C)CN([C@@H](C)CO)S2(=O)=O,-2,21[16.7 µM]
C[C@H](CO)N1C[C@H](C)[C@@H](CN(C)C)OCCCC[C@H](C)Oc2ccc(NC(=O)Nc3ccc(C(F)(F)F)cc3)cc2C1=O,14,14[16.7 µM]
C[C@@H]1CN([C@@H](C)CO)C(=O)c2cc(NS(C)(=O)=O)ccc2O[C@H]1CN(C)CC1CC1,-14,3[16.7 µM]
C[C@@H]1CN([C@H](C)CO)C(=O)c2cc(-c3ccc(F)cc3)cnc2O[C@@H]1CN(C)Cc1cccnc1,-14,-9[16.7 µM]
# Other records follow:
SMILES,UUG fidelity,HIV Env fusion
O=C(C[C@H]1CC[C@@H](NS(=O)(=O)c2ccccc2)[C@H](CO)O1)NCCN1CCCCC1,-16,2[16.7 µM]
COc1ccc(S(=O)(=O)N(C)C[C@H]2Oc3ncc(-c4ccncc4)cc3C(=O)N([C@@H](C)CO)C[C@H]2C)cc1,12,-8[16.7 µM]
CO[C@H]1CN(C)C(=O)c2ccc(NC(C)=O)cc2OC[C@H](C)N(C(=O)c2ccc(F)cc2)C[C@H]1C,-2,9[16.7 µM]
C[C@@H]1CCCCO[C@@H](CN(C)C)[C@H](C)CN([C@@H](C)CO)C(=O)c2cc(NS(C)(=O)=O)ccc2O1,-7,-12[16.7 µM]
CCCC#Cc1cnc2c(c1)C(=O)N([C@@H](C)CO)C[C@H](C)[C@H](CN(C)C(=O)Nc1ccccc1F)O2,8,5[16.7 µM]
O=C(NCC[C@@H]1CC[C@@H](NC(=O)C2CCCC2)[C@@H](CO)O1)c1cc(Cl)cc(Cl)c1,-7,5[16.7 µM]
Cc1noc(C)c1NC(=O)Nc1cccc2c1O[C@H](CN(C)CC1CC1)[C@@H](C)CN([C@H](C)CO)C2=O,-13,-56[16.7 µM]
COc1ccc(S(=O)(=O)N[C@@H]2CC[C@@H](CCn3cc(C(C)C)nn3)O[C@@H]2CO)cc1,0,13[16.7 µM]
COc1ccc(-c2cnc3c(c2)C(=O)N([C@@H](C)CO)C[C@@H](C)[C@H](CN(C)C(=O)C2CCC2)O3)cc1,19,-69[16.7 µM]
C[C@@H]1CN([C@@H](C)CO)C(=O)c2cc(NC(=O)NC3CCCCC3)ccc2O[C@H]1CN(C)Cc1ccncc1,-12,-9[16.7 µM]
COc1ccc(S(=O)(=O)Nc2ccc3c(c2)C(=O)N([C@H](C)CO)C[C@H](C)[C@H](CN(C)S(C)(=O)=O)OCCCC[C@@H](C)O3)cc1,-2,-4[16.7 µM]
CC(C)NC(=O)N[C@H]1C=C[C@H](CC(=O)N2CCCCC2)O[C@H]1CO,-17,13[16.7 µM]
COc1ccc(S(=O)(=O)Nc2ccc3c(c2)C(=O)N([C@@H](C)CO)C[C@@H](C)[C@H](CN(C)Cc2ccc(Cl)c(Cl)c2)O3)cc1,10,-30[16.7 µM]
Cc1noc(C)c1NC(=O)Nc1cccc2c1O[C@H](CN(C)C(=O)Nc1ccc(F)cc1)[C@H](C)CN([C@@H](C)CO)C2=O,10,-68[16.7 µM]
O=C(Cc1cccnc1)N[C@@H]1CC[C@@H](CCn2cc(Cc3ccccc3)nn2)O[C@@H]1CO,-20,-9[16.7 µM]
CC(=O)N[C@@H]1CC[C@H](CC(=O)NCC2CCCCC2)O[C@H]1CO,-30,2[16.7 µM]
C[C@@H]1CN([C@@H](C)CO)C(=O)c2cc(NC(=O)Nc3cccc4ccccc34)ccc2O[C@@H](C)CCCCO[C@H]1CN(C)Cc1ccc(Cl)c(Cl)c1,1,41[16.7 µM]
C[C@H](CO)N1C[C@H](C)[C@H](CN(C)C(=O)Nc2cc(F)ccc2F)Oc2ncc(C#CCN(C)C)cc2C1=O,13,-1[16.7 µM]
C[C@H](CO)N1C[C@H](C)[C@H](CN(C)Cc2cccc(C(=O)O)c2)Oc2ncc(-c3ccccc3F)cc2C1=O,12,-55[16.7 µM]
C[C@@H]1CCCCO[C@@H](CN(C)C(=O)NC2CCCCC2)[C@H](C)CN([C@H](C)CO)C(=O)c2cc(NC(=O)Cc3ccccc3)ccc2O1,-2,-6[16.7 µM]
CO[C@H]1CN(C)C(=O)c2ccc(NC(=O)NC(C)C)cc2OC[C@H](C)N(C(=O)C2CCC2)C[C@H]1C,13,11[16.7 µM]
O=C(C[C@H]1C=C[C@@H](NS(=O)(=O)c2cccc(F)c2)[C@H](CO)O1)NCc1ccc2c(c1)OCO2,-9,-6[16.7 µM]
COc1ccc(CN(C)C[C@H]2Oc3ccc(NC(=O)Cc4cn(C)c5ccccc45)cc3C(=O)N([C@@H](C)CO)C[C@H]2C)cc1,-5,-40[16.7 µM]
Cc1ccc(S(=O)(=O)N(C)C[C@@H]2OCCCC[C@H](C)Oc3ccc(NC(=O)Nc4ccc(F)cc4)cc3C(=O)N([C@@H](C)CO)C[C@H]2C)cc1,11,1[16.7 µM]
C/C=C/c1cnc2c(c1)C(=O)N([C@H](C)CO)C[C@H](C)[C@H](CN(C)C(=O)c1cccnc1)O2,37,-17[16.7 µM]

# Of the compounds above, these contain two or more sulfur atoms:
SMILES,UUG fidelity,HIV Env fusion
Cc1ccc(S(=O)(=O)Nc2cccc3c2O[C@H](CN(C)S(C)(=O)=O)[C@H](C)CN([C@H](C)CO)C3=O)cc1,0,-16[16.7 µM]
C[C@H](CO)N1C[C@H](C)[C@H](CN(C)S(=O)(=O)c2ccccc2)Oc2ccc(NS(=O)(=O)c3ccc(Cl)cc3)cc2C1=O,-4,21[16.7 µM]
C[C@@H]1CN([C@@H](C)CO)C(=O)Cc2cc(NS(=O)(=O)c3cccs3)ccc2O[C@H]1CN(C)Cc1ccc(Oc2ccccc2)cc1,1,u
CC(C)CC#Cc1ccc2c(c1)O[C@@H](CN(C)S(C)(=O)=O)[C@H](C)CN([C@@H](C)CO)S2(=O)=O,-2,21[16.7 µM]
COc1ccc(S(=O)(=O)Nc2ccc3c(c2)C(=O)N([C@H](C)CO)C[C@H](C)[C@H](CN(C)S(C)(=O)=O)OCCCC[C@@H](C)O3)cc1,-2,-4[16.7 µM]

# (listing goes on)
SMILES,UUG fidelity,HIV Env fusion
C[C@@H]1CN([C@@H](C)CO)S(=O)(=O)c2ccc(C#CC3CCCCC3)cc2O[C@@H]1CN(C)C(=O)Cc1ccncc1,1,-34[16.7 µM]
C[C@H](CO)N1C[C@H](C)[C@H](CN(C)C(=O)c2ccc(F)cc2)Oc2cc(-c3cccc(C#N)c3)ccc2S1(=O)=O,3,-5[16.7 µM]
COc1ccc(NC(=O)N(C)C[C@H]2OCCCC[C@H](C)Oc3ccc(NS(=O)(=O)c4ccccc4)cc3C(=O)N([C@H](C)CO)C[C@@H]2C)cc1,6,-29[16.7 µM]
C[C@@H]1CCCCO[C@@H](CN(C)Cc2ccc3c(c2)OCO3)[C@@H](C)CN([C@@H](C)CO)C(=O)c2cc(NS(=O)(=O)c3ccccc3)ccc2O1,9,-45[16.7 µM]
C[C@@H]1CN([C@@H](C)CO)C(=O)c2cc(NS(=O)(=O)c3ccc(Cl)cc3)ccc2O[C@@H]1CN(C)C(=O)Nc1ccccc1,1,21[16.7 µM]
C[C@@H]1CN([C@@H](C)CO)S(=O)(=O)c2ccc(C#CC3CCCC3)cc2O[C@H]1CN(C)Cc1cccnc1,-6,18[16.7 µM]
C[C@H](CO)N1C[C@H](C)[C@H](CN(C)C(=O)C2CCOCC2)Oc2cc(C#Cc3ccncc3)ccc2S1(=O)=O,191*,-16[16.7 µM]
O=C(C[C@@H]1CC[C@@H](NC(=O)CCN2CCCCC2)[C@@H](CO)O1)NCc1ccc(Cl)c(Cl)c1,-7,-51[16.7 µM]
C[C@H]1CN([C@@H](C)CO)S(=O)(=O)c2ccc(C#Cc3ccccc3F)cc2O[C@@H]1CN(C)CC1CCOCC1,4,21[16.7 µM]
Cc1noc(C)c1NC(=O)N[C@H]1CC[C@H](CCNC(=O)C2CCOCC2)O[C@H]1CO,9,-3[16.7 µM]
COc1ccc(-c2cn(CC[C@H]3CC[C@@H](NC(=O)Cc4ccccn4)[C@H](CO)O3)nn2)cc1,-2,8[16.7 µM]
COc1ccccc1C(=O)Nc1ccc2c(c1)OC[C@@H](C)N(C)C[C@H](C)[C@H](OC)CN(C)C2=O,-14,-2[16.7 µM]
O=C(C[C@@H]1CC[C@@H]2[C@H](COC[C@@H](O)CN2C(=O)Nc2ccc(C(F)(F)F)cc2)O1)NC1Cc2ccccc2C1,3,5[16.7 µM]
COc1ccc(S(=O)(=O)N(C)C[C@H]2Oc3ccc(NS(=O)(=O)c4ccccc4)cc3C(=O)N([C@H](C)CO)C[C@H]2C)cc1,10,-31[16.7 µM]
CCNC(=O)C[C@@H]1C=C[C@H](NS(=O)(=O)c2ccc(C)cc2)[C@@H](CO)O1,-11,-15[16.7 µM]
COc1ccc(NC(=O)N[C@@H]2CC[C@@H](CCn3cc(-c4ccc(F)cc4)nn3)O[C@@H]2CO)cc1,-17,-8[16.7 µM]
C[C@@H]1CN([C@H](C)CO)S(=O)(=O)c2ccc(C3=CCCCC3)cc2O[C@@H]1CN(C)C(=O)C1CCCCC1,39,33[16.7 µM]

# Not all compounds are listed; count on the stated rates, not on these rows.
